# 2A StopGo: FMDV 2A StopGo reporter, luciferase signal. human cells with a luciferase reporter of 2A StopGo recoding; control for the full effect not named in the record. 410,000 compounds, 1.2% hits. Potency, µM (titrated, usually from 57.9 µM), for the others: top-dose signal change, negative = less light; active = well fitted falling curve with a large enough effect; inconclusive = small, poorly fitted or top-dose-only effect; inactive = no such curve, though single readings can be large or run the other way; tested in HEK293T cells; further: on the % scale 0 is the no-effect control and ±100 the full control effect; nearly all actives have a fitted effect of over 45% in size; luciferase light after 4 h
# Cruzain inh Det: inhibitors of Trypanosoma cruzi cruzain with detergent | Potency, µM, for the others: max response, negative = inhibition, most hits filed as inhibitors | 200,000 compounds, 0.43% hits | P25779 | purified cruzain, Z-FR-AMC fluorescence, 0.01% Triton | AID 1478;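 further: plate controls were neutral wells for no effect and buffer without enzyme for full effect; nearly all actives have a fitted effect of over 40% in size; top concentration of the series not given in the record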
# Target sequence (P25779 123-467 limits assumed): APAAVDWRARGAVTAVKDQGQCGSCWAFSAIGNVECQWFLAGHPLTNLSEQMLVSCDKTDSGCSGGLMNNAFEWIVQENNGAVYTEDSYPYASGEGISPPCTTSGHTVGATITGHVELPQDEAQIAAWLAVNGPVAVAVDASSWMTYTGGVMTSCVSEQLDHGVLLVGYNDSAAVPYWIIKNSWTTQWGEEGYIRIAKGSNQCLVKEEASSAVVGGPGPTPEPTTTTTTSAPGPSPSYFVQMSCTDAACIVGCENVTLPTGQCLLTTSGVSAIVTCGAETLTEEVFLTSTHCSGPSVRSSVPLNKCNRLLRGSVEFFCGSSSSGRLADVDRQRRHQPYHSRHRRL
#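 Sodium acetate buffer (100 mM, pH 5.5) containing 5 mM DTT and 0.01% Triton X-100 hosted 1.5 nM cruzain and test compound for 15 min at room temperature. Cleavage of 2 uM Z-FR-AMC was then tracked by fluorescence.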
# Cruzain noTriton: blocks cruzain activity in detergent-free assay; 200,000 compounds, 2.3% hits; P25779; Potency, µM, inactives show max response, negative = inhibition, actives largely listed as inhibitors; AID 1476; purified cruzain, Z-FR-AMC fluorescence, no detergent;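 further: plate controls were enzyme without inhibitor for no effect and buffer without enzyme for full effect; nearly all actives have a fitted effect of over 40% in size; top concentration of the series not given in the record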
#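 Purified cruzain at 1.5 nM, pre-incubated 15 min with compound at room temperature in 100 mM sodium acetate pH 5.5, 5 mM DTT, 0.00005% Triton X-100. Reaction started with 2 uM Z-FR-AMC; AMC fluorescence increase over 60 s gives rate.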
# SARS PLP yeast: blocks SARS-CoV papain-like protease in a yeast assay; Potency, µM (doses to about 32.9 µM), inactives show top-dose activity, positive = growth rescue; S. cerevisiae expressing SARS-CoV PLpro, growth rescue; control for the full effect not named in the record; AID 485353; 330,000 compounds, 0.19% hits; active means well fitted rising curve with a large enough effect; inconclusive means small, poorly fitted or top-dose-only effect; inactive means no such curve, though single readings can be large or run the other way; further: 0% is about no effect; nearly all actives have a fitted effect of over 55% in size; growth read by luminescence after 48 h
# LASV entry inh: Lassa virus entry inhibition; Lassa virus pseudotype entry inhibition, cell reporter; control for the full effect not named in the record; Potency, µM (series often up to 37.9 µM), without a hit: top-dose activity change, negative = inhibition, most hits filed as inhibitors; 300,000 compounds, 1.2% hits; active means well fitted inhibition curve with a large enough effect; inconclusive means small, poorly fitted or top-dose-only effect, or effect the other way; inactive means flat fitted curve, though single readings scatter; tested in HEK293 cells; further: on the % scale 0 is the no-effect control and ±100 the full control effect; nearly all actives have a fitted effect of over 50% in size; luciferase read-out
# Marburg entry inh: blocks Marburg virus binding to or entry into cells | Marburg virus pseudotyped entry inhibition, cell reporter; control for the full effect not named in the record; about a third of the inactives were read at about 46 µM | Potency, µM (doses to about 37.8 µM), for inactives: top-dose activity change, negative = inhibition, actives largely listed as inhibitors | 300,000 compounds, 1.8% hits; active = well fitted inhibition curve with a large enough effect; inconclusive = small, poorly fitted or top-dose-only effect, or effect the other way; inactive = flat fitted curve, though single readings scatter; tested in HEK293 cells; about a fifth of its hits are not listed in these tables; further: on the % scale 0 is the no-effect control and ±100 the full control effect; luciferase read-out
# RE007 growth inh: less growth of the S. pombe RE007 Vpr strain; AID 651644; Potency, µM (doses to about 92.2 µM), without a hit: at the highest dose activity change, negative = less growth; S. pombe RE007 Vpr strain, BacTiter-Glo ATP luminescence, 24 h; control for the full effect not named in the record; 360,000 compounds, 0.21% hits; active = well fitted falling curve with a large enough effect; inconclusive = small, poorly fitted or top-dose-only effect; inactive = no such curve, though single readings can be large or run the other way;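 further: on the % scale 0 is the no-effect control and ±100 the full control effect; nearly all actives have a fitted effect of over 50% in size; the assay follows cell death caused by Vpr and the record does not say whether a fall means rescue or toxicity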
#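 Fission yeast strain RE007, carrying one chromosomally integrated HIV-1 vpr copy, was seeded at OD 0.01 in PMG+AL medium with 23 nL pinned compound. After 24 h at 30 °C and 99% humidity, viability was read by BacTiter-Glo luminescence.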
# NS1 function inh: inhibitors of influenza NS1 protein function | 270,000 compounds, 0.4% hits | Potency, µM (highest dose often 46.1 µM), for the others: at the top dose activity, positive = more growth | S. cerevisiae slowed by influenza A NS1, growth recovery by OD600; active means well fitted rising curve with a large enough effect; inconclusive means small, poorly fitted or top-dose-only effect; inactive means no such curve, though single readings can be large or run the other way; further: nearly all actives have a fitted effect of over 50% in size
#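 Recovery from NS1-induced slow growth read by OD600 in budding yeast switched to galactose assay medium (pH 6.0, -URA) at 1:100 dilution. Compound 23 nl per well; the matching strain lacking NS1 serves as control.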
# Numbers without * were called inactive; ? = inconclusive; · = not tested or not shown; & = joins results of further samples; [ ] = dose if it differs, or a comment. Unless noted, the call rests on the fitted dose curve; in most records, active means well fitted curve in the direction sought with a large enough effect; inconclusive means small, poorly fitted or top-dose-only effect, or another doubt; inactive means no such curve, though single readings can be large; an effect the other way counts as inactive or inconclusive. Potency means the concentration at half of the fitted maximal effect.
SMILES,2A StopGo,Cruzain inh Det,Cruzain noTriton,SARS PLP yeast,LASV entry inh,Marburg entry inh,RE007 growth inh,NS1 function inh
Cc1cc(=O)n2c(C(=O)Nc3ccc(C)c(C)c3)c(C(=O)Nc3ccccc3)sc2n1,4.7%&10.8%,-3.2%,-6.3%,-1.8%,15.0%[46.1 µM],-6.0%&-6.0%[46.1 µM],7.8%,·
Cc1cc2oc(=O)ccc2cc1[N+](=O)[O-],-13.4%,·,·,5.7%,·,·,3.8%,0.8%
O=C(NCc1ccccc1)NC(O)C(Cl)(Cl)Cl (stereo not drawn),2.6%,·,·,0.1%,13.4%[46.1 µM],-2.1%[46.1 µM],3.7%,0.5%
COC(=O)C1CCN(Cc2ccc(OCCCN3CCN(c4ccc([N+](=O)[O-])cc4)CC3)cc2)CC1,?,·,·,0.7%,?,?,?,-5.8%
O=C(/C=C/c1cccs1)N1CCC2(CC1)Oc1ccc(F)cc1C(=O)C21CC(c2ccc(Cl)cc2)=NO1 (stereo not drawn),0.0%,·,·,0.7%,·,·,7.4%,5.6%
O=C(C1CCCCN1S(=O)(=O)c1ccccc1)N1CCCCC1 (stereo not drawn),-8.6%,3.9%,-10.0%,1.1%,7.1%,-0.5%,-5.3%,8.5%
O=C(NCc1ccc(Cl)cc1)c1ccc(NC(=O)C2CCCO2)cc1 (stereo not drawn),2.2%,·,·,2.9%,-8.2%[46.1 µM],?,1.1%,-7.6%
Cc1ccccc1NC(=O)CCC(=O)N1CC(C)Sc2ccccc21 (stereo not drawn),7.8%,-1.9%,-4.2%,·,20.4%[46.1 µM],·,·,·
COc1ccc(N(CC(=O)Nc2cccc(C)c2)S(=O)(=O)c2c(C)noc2C)cc1,2.2%,·,·,-3.3%,·,·,24.8%,-49.4%
CCCC/C(O)=N\S(=O)(=O)c1ccc(N=NN(C)C)cc1,3.0%,-5.0%,-3.2%,1.6%,?,3.9%,11.4%,-3.5%
COCCOC(=O)c1c(NC(=O)CSc2cccc[n+]2[O-])sc(C(N)=O)c1C,-7.6%,·,·,5.3%,?,-1.7%[46.1 µM],4.5%,3.4%
Cc1ccc(CSc2cc(C)[nH]c(=O)n2)cc1,28.4%,·,·,-5.5%,·,·,7.8%,25.9%
COc1ccc(CCNC(=O)c2cnc3sc(N4CCCCCC4)nn3c2=O)cc1,?,-2.0%,7.9%,·,·,10.7%[46.1 µM],·,·
COCCCn1c(=O)c2sccc2n2c(CCCC(=O)N(C)Cc3ccco3)nnc12,32.3%[activator],·,·,1.7%,-1.6%[46.1 µM],3.2%[46.1 µM],19.3%,-1.4%
COc1ccc(CC(=O)NCc2ccc3c(c2)CCN3C(=O)c2ccc(Cl)cc2)cc1,0.0%,-0.7%,3.8%,·,1.9%[46.1 µM],·,·,·
CNC(=S)NCCc1ccc(OC)cc1,8.7%,·,·,0.1%,-13.7%,12.7%[46.1 µM],-6.2%,-2.4%
Cc1ccc2sc(N3CCN(C(=O)c4ccc([N+](=O)[O-])o4)CC3)nc2c1C,0.0%,·,·,-1.4%,?,9.1%,9.1%,·
CNS(=O)(=O)c1ccc(C(C)(C)C)cc1,32.3%[activator],·,·,-0.9%,-4.6%,10.8%[46.1 µM],-3.1%,3.5%
COc1ccc(OC)c(C(=O)CN2C(=O)N(c3cc(C)cc(C)c3)S(=O)(=O)c3ccccc32)c1,-1.1%,-6.6%,?,·,0.9%[46.1 µM],·,·,·
COc1ccccc1NC(=O)C1CCCN1C(=O)NC1CCCCC1 (stereo not drawn),10.8%,·,·,-1.4%,-9.5%,-1.0%[46.1 µM],19.0%,-2.0%
CCC(C)(C)NC(=O)CN(C(=O)CCC(=O)Nc1nccs1)c1ccc2c(c1)OCCO2,1.4%,·,·,1.5%,-9.6%[46.1 µM],-6.7%[46.1 µM],-2.4%,22.5%
O=C(O)c1cccc(N/N=C/c2cccnc2)c1,12.6µM*,·,·,5.1%,?,?,8.1%,·
O=C(CC1SC(N2CCCC2)=NC1=O)Nc1ccc(C(=O)Nc2ccccc2)cc1 (stereo not drawn),4.8%,·,·,·,-4.6%,9.6%,10.4%,·
Fc1cccc(CN2CCN3CCCC3C2C2CCCCC2)c1 (stereo not drawn),?,4.5%,-4.8%,-2.1%,-2.4%,?,-1.5%,10.9%
COCCCNC(=O)C1CCN(c2nc3ccc(C)cc3[nH]2)CC1,23.1%,-2.5%,-4.0%,·,26.3%[46.1 µM],·,·,·
# Further records:
SMILES,2A StopGo,Cruzain inh Det,Cruzain noTriton,SARS PLP yeast,LASV entry inh,Marburg entry inh,RE007 growth inh,NS1 function inh
CNC(=O)CN(c1cc(C)ccc1OC)S(=O)(=O)c1ccc(C)cc1,3.6%,-5.4%,-6.1%,-3.4%,-3.7%,-6.7%,2.9%,0.0%
CCCCNC(=O)Cn1c(=O)n(C)c2ccccc21,-23.5%,0.0%,9.9%,19.4%,1.0%,?,-8.9%,-8.0%
CCOC(=O)C1=C(C)Nc2sc(C(=O)c3ccc(Br)cc3)c(N)c2C1c1ccc(C(=O)OC)cc1 (stereo not drawn),0.0%,1.6%,10µM*,8.7%,?,?,19.2%,11.2%
CCS(=O)(=O)c1nc2ccccc2n1Cc1ccccn1,-5.7%,·,·,-1.6%,-25.0%,?,-0.1%,·
CC(=O)c1ccc(NC(=S)NC(C)c2ccc(Cl)cc2Cl)cc1 (stereo not drawn),?,·,·,-4.0%,?,-17.5%,9.5%,·
O=c1cc(-c2ccc([N+](=O)[O-])cc2)nc2cc(-c3ccc(Cl)cc3)[nH]n12,·,-4.8%,-8.9%,?,20.2%,16.7%,·,3.9%
O=C(CSc1ccc(-c2ccncc2)nn1)N1CCCC1,6.3%,·,·,-1.2%,12.0%[46.1 µM],?,-12.6%,·
CCCNC(=O)c1cnc(Sc2ncc(C(F)(F)F)cc2Cl)n1C,-16.8%,6.8%,-11.4%,4.4%,-12.4%,-16.4%,7.6%,3.3%
O=C(COc1ccc(Cl)cc1)NCc1cn2cc(Cl)ccc2n1,-0.1%,·,·,-0.4%,·,-2.4%[46.1 µM],?,-3.7%
CC(C)Sc1nc2ccc(N3C(=O)C4CCCCC4C3=O)cc2s1 (stereo not drawn),34.2%[activator],-3.9%,0.5%,-9.3%,-3.7%,?,0.6%,-2.9%
CCSc1nnc(Cn2c(=O)sc3ccccc32)n1C,-13.8%,-2.4%,-6.6%,-13.0%,·,·,-12.9%,-1.0%
CCOC(=O)/C=c1/s/c(=C/c2ccc3cc(OC)ccc3c2)c(=O)n1CC(=O)NCc1ccc2c(c1)OCO2,-4.1%,·,·,·,-11.0%[46.1 µM],?,-1.4%,·
CC(C)C(C)NC(=O)COc1ccc(OCc2ccccc2)cc1 (stereo not drawn),-6.4%,·,·,-4.1%,-22.5%,?,-0.4%,·
CCOC(=O)N1CCN(Cc2nc(Cc3cccc(C(F)(F)F)c3)no2)CC1,-16.6%,·,·,0.0%,·,·,5.8%,-2.9%
COc1ccc(S(=O)(=O)c2c(O)c3ccc(C(=O)Nc4ccc(F)cc4F)cc3[nH]c2=O)cc1,6.6%,·,·,-14.8%,·,·,12.2%,3.6%
O=C(Cn1ncc2c3ccccc3n(Cc3ccc(F)cc3)c2c1=O)NC1CCCCCC1,12.0%,-2.8%,?,·,14.9%[46.1 µM],-1.6%[46.1 µM],·,·
Cc1ccc(C2=C(c3ccc([N+](=O)[O-])cc3)C(=O)OC2)cc1C,0.0%,·,·,-9.1%,?,?,-15.1%,·
O=C(COC(=O)c1cc([N+](=O)[O-])ccc1Cl)NC1CCCC1,0.0%,·,·,3.4%,·,·,0.3%,4.2%
CCC(CC)C(=O)N1c2ccccc2C(C)(c2ccccc2)CC1(C)C (stereo not drawn),?,-3.6%,-8.3%,·,?,·,·,·
Cc1cccc(CCNC(=O)C2CCN(S(=O)(=O)c3cccc4cccnc34)CC2)c1,-16.6%,·,·,2.3%,·,·,6.0%,-7.0%
CN(CC(=O)Nc1ccc(Cl)c(Cl)c1)C(=O)CC1OC(=O)c2ccccc21 (stereo not drawn),0.7%,·,·,·,-8.6%,-4.2%,1.1%,·
CCc1nnc(NS(=O)(=O)c2ccc(N/C=C/C(=O)c3ccc(C)cc3)cc2)s1,40.4%[activator],-4.3%,19.3%,16.5%,-1.1%,3.2%,5.9%,1.2%
COc1ccccc1CNC(=O)c1ccc2nc(N3CCOCC3)sc2c1,9.7%,·,·,6.5%,·,·,16.3%,-21.5%
COC(=O)c1nnn(-c2nonc2N)c1CSc1ccc(Cl)cc1,-1.8%,3.5%,-1.9%,2.4%,-0.9%,15.8%,7.2%,-0.8%
CCCNC(=O)OCC12CC3CC(CC(C3)C1)C2,-2.7%,0.3%,1.2%,9.4%,?,15.4%,0.5%,-7.8%
# Remaining list, next part.
SMILES,2A StopGo,Cruzain inh Det,Cruzain noTriton,SARS PLP yeast,LASV entry inh,Marburg entry inh,RE007 growth inh,NS1 function inh
COc1cc(NS(=O)(=O)c2cn(C)cn2)cc(OC)c1,3.4%,·,·,-2.4%,·,·,3.2%,2.5%
O=[N+]([O-])c1ccc(S(=O)(=O)Nc2cccc(-c3ccc(N4CCOCC4)nn3)c2)cc1,17.9%,·,·,3.2%,?,-11.4%,5.9%,·
O=C(NCc1ccco1)c1nnc(Cc2ccc(F)cc2)o1,4.9%,-1.0%,1.0%,0.8%,·,·,2.5%,-15.2%
c1ccc(C(c2ccccc2)N2CCN(Cc3nnnn3C3CCCC3)CC2)cc1,-13.5%,-2.7%,5.7%,-9.2%,?,?,-5.9%,-41.0%
c1csc(-c2nn[nH]n2)c1,-29.0%,0.3%,2.1%,0.5%,?,22.3%,-2.0%,1.6%
CCc1cc2cc3c(cc2nc1SCC(=O)N1CCN(C(=O)c2ccco2)CC1)OCO3,0.0%,-7.9%,29.7%,-4.9%,-21.5%,?,-12.4%,-34.3%
COc1ccccc1NS(=O)(=O)c1cc(N)ccc1N1CCCC1,17.7%,·,·,-3.4%,15.8%,-11.0%,-4.2%,·
